Assay outcomes: PubChem, ICCB-Longwood Screening Facility, Harvard Medical School
Ab BasE inh = BasE siderophore enzyme inhibitors, primary screen, biochemical, Acinetobacter baumannii ATCC 17978, fluorescence polarization. inhibition, % (test concentration not listed). hit rate 0.1% among 84,000. purified BasE, fluorescence polarization binding displacement;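 active = both replicates above 25% with normal brightness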;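 note: 0% = negative plate control signal and 100% = positive plate control signal; stock transfer was 100 nL into about 30 µL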
LANA-nucl inh = inhibitors of KSHV LANA-nucleosome binding, primary screen, biochemical, fluorescence polarization, FITC-LANA1-23, chicken nucleosomes | FITC-LANA1-23 / chicken nucleosome fluorescence polarization; hits give low values | z-score (no concentration beside the values) | hit rate 0.3% among 51,000 | AID 720717, 2013;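 active = both repeat wells score below -2 in polarization z-score versus plate sample wells, excluding overly bright wells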;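 note: 100 nL library stock added to about 30 µL; numbers are from one replicate; some results filed as inactive read as strong as hits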
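Test system: purified chicken nucleosomes with FITC-labelled LANA N-terminal peptide (1-23); Input: 240 nM purified chicken nucleosomes (480 nM peptide binding sites), final; Medium: TEN-BT buffer, pH 7.5; Timing: 10–45 min, room temperature; Technique: fluorescence polarization, 480 nm excitation, 535 nm parallel and perpendicular emission; Replication: duplicates.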
An asterisk follows results filed as active; . = no result given. The list is partial (hit frequency here may not be typical).

no.	smiles	Ab BasE inh	LANA-nucl inh
1	N#CC(C(=O)CN1CCOCC1)c1ccccc1 (stereo not given)	0.3	0.97
2	O=C(O)c1ccc2ccccc2n1	-0.2	-0.32
3	O=S(=O)(c1ccc(Cl)cc1)N1CCCN(c2ccc(C(F)(F)F)cn2)CC1	.	-0.85
4	O=C(Nc1ccccc1)N1CCN(c2ncccn2)CC1	1.1	.
5	Cc1ccc(N(Cc2ccc(C(=O)NCc3ccco3)cc2)S(C)(=O)=O)cc1C	1.5	-0.084
6	COc1cc(Br)c(CSc2n[nH]c(=O)n2C2CC2)cc1OC	0.2	.
7	O=C(Cc1cccc(C(F)(F)F)c1)NNc1c(F)c(F)cc(F)c1F	-0.3	.
8	CN(C)c1c2c(c(C#N)c3nc4ccccc4n13)CCC2	-3.5	.

Reprinted at random: 2 compounds from above, in no set order.
no.	smiles	Ab BasE inh	LANA-nucl inh
7	O=C(Cc1cccc(C(F)(F)F)c1)NNc1c(F)c(F)cc(F)c1F	-0.3	.
2	O=C(O)c1ccc2ccccc2n1	-0.2	-0.32

Continuation:
no.	smiles	Ab BasE inh	LANA-nucl inh
9	CCOC(=O)c1nn(-c2ccccc2)c(C(=O)OCC)c1N(C(=O)CC)C(=O)CC	0.6	-0.28
10	Cc1ccccc1Nc1nc(N)nc(COC(=O)CCc2nc3ccccc3c(=O)[nH]2)n1	0.6	.
11	CC(=O)N1N=C(c2ccncc2)OC1(C)C	4.5	0.64
12	c1ccc2[nH]c(NN=C3CCCC3)nc2c1	-2.7	.
13	COC(=O)c1ccc(CSc2nc3ccc(S(N)(=O)=O)cc3[nH]2)cc1	-2.9	.
14	COc1ccc(NC(=O)c2ccc3c(-c4ccccc4)onc3c2)cc1	2.0	-0.52
15	CCN(CC(=O)Nc1cccc(OC)c1)C(=O)C1CCN(C(=O)Nc2ccccc2)CC1	-1.8	.
16	N#Cc1ccc(COC(=O)C2CCCCN2S(=O)(=O)c2cccc3nsnc23)cc1 (stereo not given)	3.5	.
17	CCCNC(=O)Nc1ccc2snnc2c1	-2.0	0.23
18	CCC(=O)Nc1ccc2c(c1)C(=O)NC2=O	1.7	0.2
19	Cn1c(N)c(C(=O)CSc2nc3sc4c(c3c(=O)n2Cc2ccco2)CCCC4)c(=O)[nH]c1=O	1.1	.
20	CC1(C)CC(=O)C=C(NNc2ccccn2)C1	2.5	0.26
21	Nc1cc(N)nc(SCC(=O)N2CCc3ccccc32)n1	-2.6	0.13
22	CCOC(=O)C1=C(N)OC2=C(C(=O)CC(C)(C)C2)C1c1ccccc1 (stereo not given)	12	1.1
23	CCCC1=C(C(=O)OC)C(c2ccccc2)n2c(nc3ccccc32)N1 (stereo not given)	1.4	-1.3
24	COC(=O)c1sc(SCCOC(=O)c2ccccc2Cl)c2c1CC(C)(C)CC2=O	-1.0	.
25	NC(=O)COC(=O)CC12CC3CC(CC(C3)C1)C2	1.9	.
26	Cc1cc2c(=O)n(C)c(SCC(N)=O)nc2s1	2.1	0.096
27	Oc1ccc(Br)cc1C1Nc2ccccc2S1 (stereo not given)	3.0	.
28	Cc1ccc(NC(=O)CN(C)C(=O)CSc2nnc(-c3ccc4c(c3)OCO4)o2)cc1	2.2	.
29	CCCCOC(=O)Nc1ccc(I)cc1C	1.5	-0.054
30	CCOCCCn1nnc2c(=O)[nH]c(C(=O)NCc3cccc(Cl)c3)nc21	-1.4	1.9
31	Cc1ccc(NC2=CC(=O)NC2)cc1	-2.5	.
32	CCOC(=O)N1CCN(C(=O)c2cccc(NC3=NC4CS(=O)(=O)CC4S3)c2)CC1 (stereo not given)	-2.2	2.5
33	CN1CCN(C(CNC(=O)c2ccc(Cl)cc2)c2ccc3c(c2)OCO3)CC1 (stereo not given)	-1.4	-1
34	Cc1nc(C(=O)NCC(=O)c2ccccc2)c(C(F)(F)F)o1	2.0	-1.4
35	CC1CN(C(=O)Nc2cccc(C(F)(F)F)c2)CC(C)O1 (stereo not given)	-1.0	.
36	CSCC[C@H](NC(=O)[C@H](Cc1ccccc1)NC[C@@H](NC[C@@H](N)CS)C(C)C)C(=O)O	1.1	-0.26
37	O=C(CN1Cc2ccccc2C1=O)N1CC=C(c2ccccc2)CC1	-1.7	-0.48
38	CC1(C)COC(c2cccn2Cc2ccc(F)cc2Cl)=N1	1.6	-0.29
39	Cc1ccc(-c2nnn(CC(=O)NN)n2)cc1Cl	0.7	0.42
40	CC1(C)OC(=O)C(=Cc2ccc[nH]2)C(=O)O1	1.6	.
41	N#Cc1ccc(C#CCOC(=O)Nc2ccc(OC(F)(F)F)cc2)cc1	1.3	.
42	FC(F)(F)c1cccc(N=Cc2cccnc2)c1	2.8	-0.1
43	CC(C)(C)C(=O)OCOC(=O)[C@@H]1N2C(=O)[C@@H](N=CN3CCCCCC3)[C@H]2SC1(C)C	1.1	-0.64
44	O=C(/C=C/c1ccc(OC(F)F)cc1)OCc1ccco1	0.9	.
45	CC1=C(C(=O)OCC2CCCO2)C(c2ccccc2)NC(=O)N1 (stereo not given)	2.5	0.17
46	CCOc1ccc(C(=O)NC(C(=O)Nc2ccc(S(=O)(=O)N(C)C)cc2)C(C)C)cc1 (stereo not given)	-0.7	.
47	Cc1cc(C)c2nc3sc(C(=O)N4CCOCC4)c(N)c3cc2c1	-11	1.4
48	COc1ccc2cc(C#N)c(N3CCN(Cc4nnnn4CCC(C)C)CC3)nc2c1	-2.7	-0.68
49	COC(=O)c1ccc(CO/N=C(\C)c2ccc(Cl)cc2Cl)o1	1.9	-0.99
50	N/C(=N\S(=O)(=O)Cc1ccccc1)Nc1nc2ccccc2o1	1.3	.
51	N#Cc1cccc(COC(=O)c2ccccc2-n2cnnn2)c1	2.9	.
52	CC(C)OC(=O)CSc1nc2ccccc2s1	0.4	.
53	CCOC(=O)N1CCN(C(=O)/C=C2\Sc3ccccc3NC2=O)CC1	-1.3	-0.14
54	COc1cccc(CNC(=O)c2ccc(CS(=O)Cc3ccc(C)cc3)o2)c1 (stereo not given)	-1.7	0.097
55	NC(=O)COc1cccc(/C=C2/CC/C(=C\c3cccc(OCC(N)=O)c3)C2=O)c1	3.6	.
56	CC(=O)N/C(=N/c1nc(C)cc(C)n1)Nc1cc(C)cc(C)c1	1.8	.

Single records, from the list above. Order of screens: Ab BasE inh	LANA-nucl inh
NC(=O)COc1cccc(/C=C2/CC/C(=C\c3cccc(OCC(N)=O)c3)C2=O)c1 as listed: 3.6	.
CCOC(=O)N1CCN(C(=O)/C=C2\Sc3ccccc3NC2=O)CC1 as listed: -1.3	-0.14
COc1cccc(CNC(=O)c2ccc(CS(=O)Cc3ccc(C)cc3)o2)c1 (stereo not given) as listed: -1.7	0.097

Returning to the listing, starting 5 compounds before the break.
no.	smiles	Ab BasE inh	LANA-nucl inh
52	CC(C)OC(=O)CSc1nc2ccccc2s1	0.4	.
53	CCOC(=O)N1CCN(C(=O)/C=C2\Sc3ccccc3NC2=O)CC1	-1.3	-0.14
54	COc1cccc(CNC(=O)c2ccc(CS(=O)Cc3ccc(C)cc3)o2)c1 (stereo not given)	-1.7	0.097
55	NC(=O)COc1cccc(/C=C2/CC/C(=C\c3cccc(OCC(N)=O)c3)C2=O)c1	3.6	.
56	CC(=O)N/C(=N/c1nc(C)cc(C)n1)Nc1cc(C)cc(C)c1	1.8	.
57	CN1CCN(C(=O)/C(=C/c2cccs2)NC(=O)c2cccs2)CC1	-0.5	0.22
58	CCOC(=O)CSC1=Nc2ccccc2C2=NC(CC(=O)N3CCN(c4ccccc4)CC3)C(=O)N12 (stereo not given)	0.3	-0.52
59	CC(=O)NNc1ncnc2ccccc12	-1.0	.
60	Nc1c(C(=O)CSc2nnc(-c3ccc4c(c3)OCO4)o2)c(=O)[nH]c(=O)n1Cc1ccccc1	1.4	.
61	Oc1ccccc1N=CC=Nc1ccccc1O	-0.4	.
62	COc1ccc(C2c3c(n(C)c4ccccc34)C(=O)N2CC(=O)NCc2cccs2)cc1 (stereo not given)	0.8	0.59
63	O=C(NCC1(c2ccccc2)CCOCC1)C1COc2ccccc2O1 (stereo not given)	0.1	-0.076
64	Cc1ccc2c(c1)/C(=N/O)CC(O)(C(F)(F)F)O2 (stereo not given)	1.9	0.93
65	COc1ccccc1N1CCN(C(=S)NC(C)(C)C)CC1	2.5	-1.6
66	O=C(CN1CCCN(Cc2ccc(F)cc2Cl)C1=O)NCc1cccnc1	-4.3	2.1
67	O=S(=O)(c1cccs1)N1CCCN(S(=O)(=O)c2cccs2)CC1	1.6	2.5
68	Cc1cc(C)c(C(N)=O)c(=S)[nH]1	-0.3	2.4
69	CCCn1c(NC(C)=C(C#N)C#N)nc2ccccc21	-1.1	.
70	O/N=C/c1cccc(Cl)c1	.	-0.091
71	O=C(NC1CC1)c1ccc(CS(=O)c2cccc(Cl)c2)o1 (stereo not given)	-4.1	2.1
72	O=C(Nc1cccc(Cl)c1)N1CCN(C2c3ccccc3-c3ccccc32)CC1	.	-0.87
73	Cc1cc(C)nc(N/N=C/C2=CCC3CC2C3(C)C)n1 (stereo not given)	2.8	.
74	COc1ccccc1N(CC(N)=O)S(=O)(=O)c1ccccc1	-0.1	0.32
75	CS(=O)(=O)c1ccc(C(=O)Nc2ccc(N3CCCCC3)cc2)c(Cl)c1	.	-0.79
76	Nc1ncccc1Cl	1.1	-0.15
77	COc1cc2c(cc1OC)CN(CC(=O)Nc1ccccc1C(=O)Nc1ccc3c(c1)OCO3)CC2	0.8	.
78	COc1ccc(OCCCC(=O)NNc2ccccc2)cc1	-1.5	.
79	NC(=O)CSc1cn(CCNC(=O)c2ccccc2)c2ccccc12	2.3	-0.017
80	Cc1ccc(Cn2c(CO)cnc2SCC(=O)Nc2nc(C)cs2)cc1	-3.7	0.76
81	COc1ccccc1NC(=O)Cc1noc(COC(=O)c2sc3ccccc3c2Cl)n1	-3.0	.
82	Cc1cc(OCC(=O)Oc2ccc(-c3nnco3)cc2)ccc1C(C)C	-4.0	.
83	Cc1c2cn[nH]c(=O)c2c(C)n1Cc1cccs1	-0.6	0.25
84	NC(=O)NC1CCCCCCC1	2.7	.
85	CC(C)(C)NC(=O)CSc1nnc(NC2=NS(=O)(=O)c3ccccc32)s1	1.7	0.37
86	Cn1c(O)c(C=Nc2ccc(Cl)cc2)c(=O)[nH]c1=O	-0.6	-0.45
87	CCN(CC)S(=O)(=O)c1ccc(N=Nc2c(O)c3ccccc3oc2=O)cc1	3.2	.
88	C/[N+]([O-])=C\c1ccc(F)cc1	-2.8	.
89	[O-][n+]1onc2c1CCc1c-2nn(-c2ccc(Cl)cc2Cl)[n+]1[O-]	0.3	1.1
90	CCOC(=O)C(C)(C)Sc1nnc(COc2ccccc2)n1CC	-2.1	-0.5
91	CCOc1ccc(S(=O)(=O)N2CCCC(C(=O)NC)C2)cc1Cl (stereo not given)	2.2	.
92	O=C(/C=C/C(=O)N1CCOCC1)NC1CCCc2ccccc21 (stereo not given)	0.4	.
93	COc1ccccc1CNC(=O)CCS(=O)(=O)c1ccc2c(c1)n(C)c(=O)c(=O)n2C	1.3	0.43
94	O=C(CCCn1c(=O)c2cccn2c2ccccc21)N1CCN(Cc2ccc3c(c2)OCO3)CC1	2.3	0.11
95	CCN(CC)CCc1nc(-c2ccccc2)no1	-1.1	-0.83
96	CC(=O)Nc1ccc(S(=O)(=O)NC2=NCN(CCOC(=O)c3ccccc3)CN2)cc1	-1.5	.
97	CCOc1cc(/C=C2\SC(N)=NC2=O)ccc1OC(C)=O	-2.4	3.2
98	O=C(O)CN1C(=O)c2cc(Cl)c(Cl)cc2C1=O	2.0	.
99	NC(=O)C1CCN(C(=O)c2ccc3c(c2)sc2nc(-c4ccccc4)cn23)CC1	5.0	-0.67
100	C/C(=N\NC(N)=O)C1CC(Cc2ccccc2)C(=O)O1 (stereo not given)	4.9	0.4
101	Cc1ccc(C)c(-c2nnc(NC(=O)c3ccccc3S(C)(=O)=O)o2)c1	2.0	-0.64
102	CCC(C)C(NS(=O)(=O)c1ccc(Cl)c(C(=O)O)c1)C(=O)O (stereo not given)	1.3	.
103	O=C1CCCN1C(=O)CSc1nnc2sc3ccccc3n12	-3.7	.
104	O=C(NCCN1C(=O)C2C3C=CC(C3)C2C1=O)N1CCCCC1 (stereo not given)	1.4	.
105	Cn1c(=Nc2ccccc2C(=O)O)ccc2ccccc21	-1.9	.
106	Cc1csc2c(N3CCOCC3)ncnc12	0.4	-0.46
107	C=C(C)[C@@H]1CC[C@]2(CO)CC[C@]3(C)[C@H](CC[C@@H]4[C@@]5(C)CCC(O)C(C)(C)[C@@H]5CC[C@]43C)[C@@H]12 (stereo not given in full)	-2.1	-0.75
108	Cc1[nH]n(-c2ccccc2)c(=O)c1/C=N/NC(C)(C)C	-1.1	.
109	O=C(CSc1nnc2ccccn12)Nc1cc(C(=O)O)cc(C(=O)O)c1	1.9	.
110	Cc1cc(C(=O)CSc2nccn2Cc2ccccc2)c(C)n1C1CCS(=O)(=O)C1 (stereo not given)	-1.3	.
111	Cc1cc(C(=O)CN2C(=O)NC3(CCCCC3C)C2=O)c(C)n1Cc1ccco1 (stereo not given)	1.8	.
112	CCC1CC(c2nc3ccccc3s2)=C(N)O1 (stereo not given)	-11	.

(further entries)
no.	smiles	Ab BasE inh	LANA-nucl inh
113	Cc1ccc(S(=O)(=O)N2CCc3ccccc3C2CC(=O)OCC(N)=O)cc1 (stereo not given)	3.2	.
114	CC(C)(C)C(=O)C[n+]1ccccc1	-2.6	.
115	Fc1ccc(N2CCN(CC3CCCCC3)CC2)cc1	-0.3	-0.29
116	COC(=O)CC1C(=O)NCCN1c1ncnc2sccc12 (stereo not given)	0.9	.
